TAR Tat displ = HIV-1 TAR-Tat binding disruption; HIV-1 TAR RNA, Tat peptide displacement FRET; hits give high values; z-score (test concentration not listed); actives 0.6% (n = 100,000); AID 1259389;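 note: score is relative to mean and SD of negative controls; some compounds called inactive have numbers as strong as hits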
CDC25B CDK2 inh = human CDC25B-CDK2/CyclinA binding inhibition; P30305+P24941; HTRF CDC25B-CDK2/CyclinA binding, anti-His/anti-Flag; hits give high values; z-score (no concentration beside the values); actives 0.72% (n = 94,000);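 note: score is relative to mean and SD of negative controls; strong numbers were not always called active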
An asterisk follows results filed as active; / = not tested or not shown.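 Rule for the calls: active = z-score from 3 up in half or more of its runs; inactive = the rest.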

SMILES	TAR Tat displ	CDC25B CDK2 inh
COc1cccc(Nc2cc(C)nc3ncnn23)c1	-0.02	0.89
Nc1nc(NCC(=O)O)nc(N2CCCC2)c1[N+](=O)[O-]	0.92	/
Cc1cnc(NC(=O)C(=O)c2cc(C)n(-c3ccc(Cl)cc3)c2C)s1	0.34	-2.6
Cc1ccn2c(=O)c(C(=O)NC3CCCC3)c(O)nc2c1	-0.29	0.24
COc1cccc2c1Oc1ncccc1N(C(=O)CCC(=O)NC1CCCC1)C2	1.7	/
O=C(Cc1noc2ccccc12)NCC1CCCO1 (configuration not stated)	1.3	-0.66
Cc1ccc2[nH]c3nc(SCC(C)C)nnc3c2c1	-0.14	0.74
Cn1cccc1Cc1nnc(SCC(=O)N2CCc3ccccc32)n1Cc1ccccc1	-0.62	-0.87
CCOC(=O)c1[nH]c(C)c(C(=O)NCCC2=CCCCC2)c1CC	1.5	/
COCCCNc1ncnc2c1cnn2C	1.6	/
COc1ccc(Nc2ncnc3onc(-c4cc(F)cc(F)c4)c23)cc1OC	0.46	/
COc1ccc(OC)c(CN2CCN(Cc3ccncc3)CC2)c1	1.1	-0.53
Cc1ccc(-c2nc3c4c(C)c(C)n(CCCN(C)C)c4ncn3n2)cc1	0.55	-2.8
COc1cccc(-c2noc(COc3ccc(Br)cc3)n2)c1	-0.9	-1.8
Cc1ccc2c(c1)N(C(=O)CSC1=NS(=O)(=O)c3ccccc3N1)CCO2	0.87	/
O=C(NCCOc1nc(N2CCCCC2)nc(N2CCCCC2)n1)Nc1ccccc1	0.13	-1.2
COC(=O)c1nc2n(n1)C(c1cccc(Cl)c1)C1=C(CCCC1=O)N2 (configuration not stated)	/	0.65
CCCOc1ccc(C2=NC(c3ccncc3)=Nc3ccc(C)cc3N2)cc1	-0.52	-1.8
C[n+]1cc(O)cc2ccccc21	/	-3.9
CCCCCCC(=O)Nc1ccc2nc3c(=O)n(CCCC)c(=O)[nH]c3nc2c1	0.05	1.2
COC(=O)c1sccc1NC(=S)NCCN1CCNC1=O	/	-2.1
CSC(=NSc1ccc([N+](=O)[O-])cc1)SC	/	-3.7
CCOc1cc(-c2cc(N)n(S(=O)(=O)c3ccc(F)cc3)n2)cc(OCC)c1OCC	/	-1.6
CCOc1ccc(-n2c(CSc3ncccn3)nnc2SC(C)C(=O)OC)cc1 (configuration not stated)	-0.2	-1.8
CC1=C(c2ccc(F)cc2)S(=O)(=O)NC1=NCCN1CCOCC1	-0.18	/
COc1ccc(OC)c(-c2noc(Nc3ccccc3OC)n2)c1	1.6	/
O=S(=O)(Nc1ccc(N2CCCCC2)cc1)c1cc(S(=O)(=O)c2ccccc2)cs1	/	0.38
CCOc1ccc(OCC)c(-n2cnnn2)c1	0.83	1.5
O=C(O)CCCC(=O)N1CCCC1	0.73	-0.56
CCOCCn1c(N2CCCCCC2)nc2c1c(=O)[nH]c(=O)n2C	/	-0.05
O=C(NCCO)N1c2ccccc2Sc2ccccc21	0.89	-0.82
Cc1nnc(NCc2ccc(F)cc2)c2c1nnn2Cc1ccc(F)cc1	0.21	-1.5
O=C(NCc1ccccn1)C1CCN(c2nc3cccnc3s2)CC1	0.17	/
Clc1cccc(N2CCN(c3ncnc4c3nc3n4CCCC3)CC2)c1	0.08	-0.69
CCOC(=O)NCS(=O)(=O)c1ccc(C)cc1	/	0.94
Cc1sc2ncnc(SCC(=O)Nc3ccc(Br)cc3)c2c1C	0.05	-8.3
CN(C)CC(=O)c1c[nH]c2ccccc12	-2.3	-1.7
CNS(=O)(=O)c1ccccc1Sc1cccc2cccc(C(=O)O)c12	/	-0.46
c1coc(CNc2nc[n+]3c4c2ncn4CC3)c1	0.27	-0.68
Cc1ccc(-c2[nH]nc3nc(-c4cccc(C)c4)cc(C(=O)O)c23)cc1	3	/
N#CC1=C2SCN(Cc3ccco3)CN2C(=O)CC1c1cccc(F)c1 (configuration not stated)	-1.2	0.33
Cn1c(CCNC(=O)c2ccco2)nc2cc(NC(=O)C3CCCCC3)ccc21	0.24	-1.1
O=C(NCc1ccccn1)c1ccc(CSc2nc3cccnc3n2Cc2ccccc2)cc1	0.19	/
Cc1nn2c(C(F)(F)F)cc(-c3cccnc3)nc2c1-c1ccc(Cl)cc1	-0.8	-1.5
O=c1[nH]cnc2c1cnn2CCOc1ccccc1	/	-1.4
CCc1cc(C)cc(OCCOc2cccc(/C=N/NC(N)=S)c2)c1	/	0.67
N/C(CS(=O)(=O)c1ccc(F)cc1)=N\ONc1ccc(OC(F)(F)F)cc1	/	-2.5
CC(C)OCCCNC(=O)CCc1nnc2ccc(N3CCOCC3)nn12	0.75	/

A portion from the list above:
SMILES	TAR Tat displ	CDC25B CDK2 inh
CSC(=NSc1ccc([N+](=O)[O-])cc1)SC	/	-3.7
CCOc1cc(-c2cc(N)n(S(=O)(=O)c3ccc(F)cc3)n2)cc(OCC)c1OCC	/	-1.6
CCOc1ccc(-n2c(CSc3ncccn3)nnc2SC(C)C(=O)OC)cc1 (configuration not stated)	-0.2	-1.8
CC1=C(c2ccc(F)cc2)S(=O)(=O)NC1=NCCN1CCOCC1	-0.18	/
COc1ccc(OC)c(-c2noc(Nc3ccccc3OC)n2)c1	1.6	/
O=S(=O)(Nc1ccc(N2CCCCC2)cc1)c1cc(S(=O)(=O)c2ccccc2)cs1	/	0.38
CCOc1ccc(OCC)c(-n2cnnn2)c1	0.83	1.5
O=C(O)CCCC(=O)N1CCCC1	0.73	-0.56
CCOCCn1c(N2CCCCCC2)nc2c1c(=O)[nH]c(=O)n2C	/	-0.05
O=C(NCCO)N1c2ccccc2Sc2ccccc21	0.89	-0.82
Cc1nnc(NCc2ccc(F)cc2)c2c1nnn2Cc1ccc(F)cc1	0.21	-1.5
O=C(NCc1ccccn1)C1CCN(c2nc3cccnc3s2)CC1	0.17	/
Clc1cccc(N2CCN(c3ncnc4c3nc3n4CCCC3)CC2)c1	0.08	-0.69
CCOC(=O)NCS(=O)(=O)c1ccc(C)cc1	/	0.94
Cc1sc2ncnc(SCC(=O)Nc3ccc(Br)cc3)c2c1C	0.05	-8.3
CN(C)CC(=O)c1c[nH]c2ccccc12	-2.3	-1.7
CNS(=O)(=O)c1ccccc1Sc1cccc2cccc(C(=O)O)c12	/	-0.46
c1coc(CNc2nc[n+]3c4c2ncn4CC3)c1	0.27	-0.68
Cc1ccc(-c2[nH]nc3nc(-c4cccc(C)c4)cc(C(=O)O)c23)cc1	3	/
N#CC1=C2SCN(Cc3ccco3)CN2C(=O)CC1c1cccc(F)c1 (configuration not stated)	-1.2	0.33
Cn1c(CCNC(=O)c2ccco2)nc2cc(NC(=O)C3CCCCC3)ccc21	0.24	-1.1
O=C(NCc1ccccn1)c1ccc(CSc2nc3cccnc3n2Cc2ccccc2)cc1	0.19	/
Cc1nn2c(C(F)(F)F)cc(-c3cccnc3)nc2c1-c1ccc(Cl)cc1	-0.8	-1.5
O=c1[nH]cnc2c1cnn2CCOc1ccccc1	/	-1.4
CCc1cc(C)cc(OCCOc2cccc(/C=N/NC(N)=S)c2)c1	/	0.67
N/C(CS(=O)(=O)c1ccc(F)cc1)=N\ONc1ccc(OC(F)(F)F)cc1	/	-2.5
CC(C)OCCCNC(=O)CCc1nnc2ccc(N3CCOCC3)nn12	0.75	/

(next part)
SMILES	TAR Tat displ	CDC25B CDK2 inh
O=C(O)c1cc(-c2cccc(Cl)c2)nc2ccccc12	/	-3.8
COc1ccc(C2=NN3C(C2)c2ccccc2OC32CCCC2)cc1 (configuration not stated)	/	-0.23
C=CCSc1nnc(NC(=O)c2cc(-c3ccc(C)c(F)c3)on2)s1	0.45	-1
O=S(=O)(Nc1ccc(Br)cc1F)c1cnc[nH]1	/	0.16
CCOC(=O)C1=C(C)NC2=C(C(=O)CCC2)C1c1ccc(O)c(OCC)c1 (configuration not stated)	2.4	-0.44
O=C(CN1C(=O)/C(=C/c2cccc(Br)c2)SC1=S)Nc1cccc2ccccc12	/	-3.1
Cc1nn(C)c(C)c1CN(C)C(=O)c1cc2nc(-c3ccc(Cl)cc3)cc(C(F)(F)F)n2n1	-0.3	0.53
O=C(CSc1ncn[nH]1)c1ccc(O)cc1O	1.9	-1.2
CCCN1CCN(C(=O)CN2C(=O)c3cccnc3Oc3ccc(Cl)cc32)CC1	1	/
COC(=O)c1c(-c2cccs2)csc1NC(=O)COc1ccccc1	-1.9	-1.1
O=S1(=O)C[C@H](N2CCN(c3ncccn3)CC2)[C@@H](S(=O)(=O)c2ccc(Cl)cc2)C1	1.7	1
O=C(COc1ccccc1)n1c(=O)oc2ccccc21	0.77	/
Cc1nc2ccc(Cl)cn2c(=O)c1NC(=O)c1ccccc1F	0.6	/
CCCCN(CC)CCCNC(=O)c1nn(C)c2c1CSc1ccccc1-2	-0.02	-0.86
O=c1ccc(-c2ccc3c(c2)OCO3)n[nH]1	2.6	-1.2
Clc1cccc(-n2ncc3c(NCc4ccco4)ncnc32)c1	2.1	/
CCN1C(=O)C(Cc2nc3ccccc3c(=O)n2CCCO)c2ccccc21 (configuration not stated)	1.7	-1.1
COc1ccc(-c2cc(-c3ccccc3)nc(NS(=O)(=O)c3ccc(N)cc3)n2)cc1	/	-1.2
O=C(CN1C(=O)c2ccccc2S1(=O)=O)Nc1ccccc1Cl	/	-1.3
Cc1cc(-c2ccc(S(=O)(=O)N3CCN(c4cc(Cl)ccc4C)CC3)s2)on1	0.92	/
CS(=O)(=O)Nc1nc2ccc(NC(=O)CN3C(=O)COc4ccc(Cl)cc43)cc2s1	-0.98	/
Cc1nc2c(cc1C(=O)/C=C/c1cccc3ccccc13)CCCC2	/	2
O=C(c1[nH]nc2c1COc1ccccc1-2)N1CCN(c2ccccn2)CC1	-0.49	/
O=[N+]([O-])c1ccc(SCc2cccc(C(F)(F)F)c2)c([N+](=O)[O-])c1	/	-1.2
CCOC(=O)C1=NNC2C(=O)N(c3cccc(Cl)c3)C(=O)C12 (configuration not stated)	-2.1	0.52
COc1cccc(OCCSc2nc3ccccc3n2C)c1	2.1	-0.37
Cc1ccc(OCCn2c(=S)[nH]c3c(N)ncnc32)cc1	/	-1.8
COc1ccc2c(c1)C=C(C(=O)NCC(=O)c1cccs1)C=CO2	-0.13	-1.8
O=C(OCc1cc(=O)n2ccsc2n1)c1ccc(Br)cc1	0.36	/
CCOc1ccc2nc(SCCN3CCCCC3)[nH]c2c1	1.3	-1.1
COc1ccc(Nc2c(-c3ccc(O)cc3)nc3cnccn23)cc1OC	1.7	-4
CCCSc1nnc2c(n1)OC(c1ccc(Br)o1)Nc1ccccc1-2 (configuration not stated)	/	-1.5
Cc1ccc2c(=O)cc(C(=O)Nc3sc4c(c3C(=O)NCc3cccnc3)CCCC4)oc2c1C	0.39	0.38
Oc1ccc(Cn2c(-c3ccc(O)cc3)nc3ccccc32)cc1	/	-0.68
O=C(NC1CCCC1)C1CCN(C(=O)N2CCOc3ccccc32)CC1	0.39	/
COc1ccc(NC(=O)c2cc3c(s2)-c2ccc(Cl)cc2S(=O)(=O)C3)c(OC)c1	1.3	2.7
COC(=O)c1sc(=S)sc1C(=O)OC	/	-2
Oc1cccc(NC(c2ccc(F)cc2)c2nnc(-c3ccccc3)o2)c1 (configuration not stated)	0.38	/
CCOc1ccc(S(=O)(=O)N2CCCN(S(=O)(=O)c3ccc(OCC)cc3)CC2)cc1	-1.1	1.6
COc1ccc(-c2nn(CCC#N)c(=O)[nH]2)cc1	/	-1.4
CCC(COc1nnnc2ccccc12)NC(=O)c1nccc2ccccc12 (configuration not stated)	0.56	-0.88
O=C(O)c1cc(-c2cc(-c3ccccn3)nc3ccccc23)n[nH]1	1.2	-0.73
O=c1[nH]c(-c2ccccc2)c(-c2ccccc2)nc1[N+](=O)[O-]	0.57	-0.04
CC1CCN(c2ccc3nnc(CCC(=O)NCCN4CCOCC4)n3n2)CC1	0.28	/
CCN1CCN(c2ncc(C(=O)NCC(C)C)c(C)n2)CC1	1.7	/
Cc1noc(C)c1Cc1ccc(C(=O)NCc2cccs2)o1	0.38	/
O=S(=O)(c1ccc(Cl)cc1)C(F)(F)F	/	-1.6
C=CCn1c(CSc2nc3sc4c(c3c(=O)[nH]2)CCC4)nnc1SC/C=C/c1ccccc1	/	-3.1
COc1ccc(S(=O)(=O)N2CCC(c3ccncc3)CC2)cc1	0.46	/
O=C(NCCCN1CCCC1=O)c1cnn(-c2cccc(F)c2)c1-n1cccc1	0.19	/
Cc1cc(Br)cc2c1N(CCCOc1ccccc1)C(=O)C2=O	1.8	0.7
